Assay outcomes from PubChem.
VDR inhibitor – blocks the human vitamin D receptor; P11473; VDR-SRC2-3 peptide fluorescence polarization, 2 h; Potency, µM, for inactives: max response, negative = inhibition, actives largely listed as inhibitors; hit rate 0.93% among 400,000; AID 504847; active = well fitted inhibition curve with a large enough effect; inconclusive = small, poorly fitted or top-dose-only effect, or another doubt; inactive = no such curve, though single readings can be large or run the other way; note: series mostly up to about 120 µM
Target sequence (P11473 whole entry, looked up): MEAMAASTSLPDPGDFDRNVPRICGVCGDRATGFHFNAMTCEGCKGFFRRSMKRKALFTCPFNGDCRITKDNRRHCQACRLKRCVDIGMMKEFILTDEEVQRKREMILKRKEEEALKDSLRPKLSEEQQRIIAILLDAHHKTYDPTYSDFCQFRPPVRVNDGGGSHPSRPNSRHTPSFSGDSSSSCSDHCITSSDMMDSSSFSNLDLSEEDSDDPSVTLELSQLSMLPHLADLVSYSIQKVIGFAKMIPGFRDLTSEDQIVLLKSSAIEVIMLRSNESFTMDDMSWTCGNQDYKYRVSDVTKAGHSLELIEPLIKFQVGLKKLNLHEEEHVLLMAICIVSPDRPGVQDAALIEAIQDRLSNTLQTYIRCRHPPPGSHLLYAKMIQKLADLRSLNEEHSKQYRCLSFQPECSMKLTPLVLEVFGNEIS
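Two reagent solutions held at 4 deg C in the dark were dispensed, compounds pinned at 23 nl, and the mixture incubated 2 h at room temperature. Read-out: fluorescence polarization of VDR–SRC2-3 peptide binding.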
* = called active by the depositor; ? = inconclusive; & = joins results of further samples; [ ] = another dose, or the depositor's remark. % is set by controls: 0 for no effect and ±100 for the full control effect; potency is the fitted concentration of half-maximal effect. These rows are one share of the data, so the mix of outcomes need not match the whole.

mol | VDR inhibitor
COc1cc(C(C)=O)ccc1OCC(=O)Nc1cc(S(=O)(=O)N2CCOCC2)ccc1N1CCCC1 | 7%
COc1ccc(NC(=O)COC(=O)C2CCN(C(=O)c3ccc(Cl)cc3)CC2)c([N+](=O)[O-])c1 | -6%
CCn1cnc2cc(NS(=O)(=O)c3ccc(C)cc3)ccc21 | 0%
O=C(Cn1cc[n+](CC(=O)c2ccc(Cl)cc2Cl)c1)c1ccc(Cl)cc1Cl | -1%
O=C(Nc1ccccc1C(=O)N1CCCC1)C1CCN(c2ncccn2)CC1 | 14%
Cc1ccc(CC2(O)CCN(CCOc3ccc(O)cc3)CC2)cc1 | 8%
CC(=O)Nc1cc(C(F)(F)F)ccc1OCC1CCCO1 (stereo not given) | -8%
CCOC(=O)N1CCC(N2Cc3cccc(C(=O)N4CC(C)CC(C)C4)c3C2=O)CC1 (stereo not given) | 4%
Cc1cc(-c2nc3ncccc3o2)ccc1NC(=S)NC(=O)C(C)C | -15%
COc1ccc(CN(C(=O)COc2ccccc2)c2ccccc2C(=O)O)cc1 | -4%
CCN(CC)C(=O)c1cc(-c2ccc(Br)cc2)on1 | -11%
COc1ccc2occ(C(=O)c3ccc(N=C(C)N(C)C)cc3)c2c1 | 9%
CCC(CC)C(=O)Nc1cc(-c2cn3cccnc3n2)ccc1OC | 6%
O=C(N/N=C/c1ccco1)C1(O)c2ccccc2-c2ccccc21 | -8%
COc1ccccc1N1CCN(C(=O)C2CCC(CNS(=O)(=O)c3ccc(NC(C)=O)cc3)CC2)CC1 (stereo not given) | 1%
Clc1ccc(Cl)c(OCCN2CCOCC2)c1 | 3%
CCCN(Cc1ccccc1)C(=S)Nc1cccc(C)c1C | -6%
O=C(COC(=O)c1cc(-c2cccs2)nc2ccccc12)c1ccc(Cl)cc1 | -11%
O=C(Cc1ccccc1)Nc1cccc(NC(=O)c2ccccc2)c1 | 12%
Cn1c(-c2ccccc2)nc2cnccc21 | ?
CCN(CC)CCCNC(=S)N(CCCO)Cc1cc2cc3c(cc2[nH]c1=O)OCO3 | 4%
COC(=O)c1ccc(CNC(=O)COc2ccccc2Br)o1 | 13%
Cc1ccc(CNC(=O)C(=O)Nc2c3c(nn2-c2ccc(F)cc2)CSC3)cc1 | 7%
O=S(=O)(/N=C(/c1ccccc1)N1CCCCCC1)c1ccccc1 | -2%
COc1ccc(C)cc1C1=Nc2ccccc2C1(C)C | ?

Some of these compounds in order of the VDR inhibitor value, rising.
mol | VDR inhibitor
O=C(COC(=O)c1cc(-c2cccs2)nc2ccccc12)c1ccc(Cl)cc1 | -11%
COc1ccc(NC(=O)COC(=O)C2CCN(C(=O)c3ccc(Cl)cc3)CC2)c([N+](=O)[O-])c1 | -6%
COc1ccc(CN(C(=O)COc2ccccc2)c2ccccc2C(=O)O)cc1 | -4%
CCC(CC)C(=O)Nc1cc(-c2cn3cccnc3n2)ccc1OC | 6%
Cc1ccc(CNC(=O)C(=O)Nc2c3c(nn2-c2ccc(F)cc2)CSC3)cc1 | 7%
Cc1ccc(CC2(O)CCN(CCOc3ccc(O)cc3)CC2)cc1 | 8%
O=C(Cc1ccccc1)Nc1cccc(NC(=O)c2ccccc2)c1 | 12%

Later entries.
mol | VDR inhibitor
CCC(C)(C)C1CCc2[nH]nc(C(=O)NCc3ccccn3)c2C1 (stereo not given) | -8%
CCOc1ccc(NC(=O)c2ccc3c(c2)C(=O)N(Cc2ccncc2)C3=O)cc1 | 7%
CCN(CC)c1ccc(NC(=O)c2ccccn2)cc1S(=O)(=O)Nc1ccccc1OC | 79µM*
CC(C)n1c(SCC(=O)NC2CC2)nnc1C1CC1 | -10%
COc1ccc(/C=C/C2=NN(C)C(=O)CC2)cc1 | -14%
COc1cccc(N2CCN(C3CC(=O)N(c4ccc(Cl)cc4)C3=O)CC2)c1 (stereo not given) | -4%
Cc1ccc(Cl)cc1Nc1nn2c(=O)c3ccc(C(=O)NCc4cccs4)cc3nc2s1 | 3%
CCOC(=O)C1=C(C)NC(SCC(N)=O)=C(C#N)C1c1ccccc1 (stereo not given) | -3%
COc1ccc(C)cc1NC(=O)c1cc2c(=O)n3ccccc3nc2n1C | -3%
O=C(CCC1CCCCC1)NCCN1C2=NC[C@H](Cc3ccccc3)N2C[C@H]1Cc1ccc(O)cc1 | 4%
O=C(COC(=O)C1CC1)NC(=O)c1ccccc1 | -17%
Cc1cnc(Nc2nc3ccccc3o2)nc1C(=O)Nc1cccc(C(F)(F)F)c1 | 7%
O=C(COc1ccc(Br)cc1)NCCCNC(=O)c1cccnc1 | -3%
Cc1cccc(CS(=O)(=O)c2ncc(Cl)c(C(=O)Nc3ccc(F)cc3)n2)c1 | 50µM*
CCOc1cc(/C=C2/C(=N)N3OC(C)=CC3=NC2=O)ccc1OC | 13%
Cc1ccc(NC(=O)Cn2c(C)cc(C)c(C#N)c2=O)cc1 | 17%
CCC(C)(C)n1nnnc1C(c1cc(OC)ccc1OC)N1CCN(Cc2ccccc2)CC1 (stereo not given) | 3%
CC(C)CCN1CCN(CCCc2ccccc2)CC1CCO (stereo not given) | -3%
CN(C)c1ccc(CNC(=O)c2ccc3nc(Cc4ccccc4)oc3c2)cc1 | 3%
CC1(C)CC(=O)C(C2(O)C(=O)Nc3ccccc32)CO1 (stereo not given) | 3%
NS(=O)(=O)c1ccc(CNC(=O)c2ccc(Br)o2)cc1 | 1%
Cc1ccccc1C(=O)NC(NCC1CCCO1)C(Cl)(Cl)Cl (stereo not given) | -4%
O=C(Nc1c(F)c(F)c(F)c(F)c1F)C1CCCCC1 | 17%
CCN1CCN(S(=O)(=O)c2ccc(OC)cc2)CC1 | -14%
O=C(CN1C(=O)NC2(CCCCCC2)C1=O)c1ccc2c(c1)OCCO2 | 0%
O=C(NCc1ccccc1Cl)C1CCCN(C(=O)Nc2ccc(F)cc2)C1 (stereo not given) | -6%
COc1ccc(CN(CCC(C)C)S(=O)(=O)c2ccccc2Br)c(OC)c1 | -12%
CCc1nc(-c2ccccc2)c2ccccn12 | -8%
O=C(CNC(=O)c1cccs1)NCC(=O)OCc1c(F)cccc1Cl | -29%
O=C(/C=C/c1ccccc1)c1ccc2c(c1)OCCCCO2 | ?
O=C(CC1SC(=NCC2CCCO2)NC1=O)Nc1cccc2ccccc12 (stereo not given) | 2%
C=CCNC(=O)CSc1nc2sc3c(c2c(=O)n1CCCOC)CCC3 | -2%
O=C(COc1ccccc1)OCC(=O)c1ccc(O)cc1O | -23%
Cc1ccc(C(=O)Nc2c(N)nc(SCC(=O)Nc3cc(C)on3)[nH]c2=O)cc1 | 0%
Cc1ccc(OCc2ccc(C#N)cc2)c(C(=O)c2cc(C#N)c(=O)n(C3CC3)c2)c1 | -6%
CCCc1nc2c(s1)CCc1onc(-c3ccc(Cl)cc3)c1-2 | -14%
COc1ccc(C2(c3ccc(O)cc3O)CC(c3ccccc3Cl)NC(=S)N2)cc1 (stereo not given) | -1%
CN(C)S(=O)(=O)c1ccc(-c2csc(N/N=C/c3ccco3)n2)cc1 | -10%
Cc1cc(C)n(CCc2nc(-c3cc4ccccc4o3)cs2)n1 | -21%
CCCCN(C(=O)COC(=O)c1nc2nc(C)cc(C)n2n1)C1CCS(=O)(=O)C1 (stereo not given) | -23%
CCn1c(SCC(=O)c2cc(OC)ccc2OC)nnc1C1CC1 | -20%
CCCn1c(=O)c(C(=O)NCC2CCCO2)c(O)c2ccccc21 (stereo not given) | 6%
CCOC(=O)C1CCCCN1Cc1cn(C)nc1-c1ccccc1F (stereo not given) | 13%
COc1cccc(OC)c1C(=O)Nc1ccc([N+](=O)[O-])cn1 | -6%
COc1ccc(N2C(=O)CC(N(Cc3ccco3)C(=O)CCC(=O)O)C2=O)cc1 (stereo not given) | -8%
C=C(C)c1nc(Oc2ccccc2)nc(Oc2ccccc2)n1 | -7%
COC(=O)CSc1nc(N)c(C#N)c(-c2ccco2)c1C#N | -8%
O=[N+]([O-])c1ccc(OCCO)c(P(=O)(c2ccccc2)c2ccccc2)c1 | 17%
Cc1ccccc1CSc1ncc(C#N)c(N)n1 | 7%
N#Cc1ccccc1Sc1ccccc1C(=O)Nc1ccc(Br)cc1 | -21%

Additional entries
mol | VDR inhibitor
CCCCCn1c(CNC(=O)c2ccccc2)nc2ccccc21 | -1%
O=C(c1ccco1)N1CCN(Cc2cc(=O)c(OCc3ccc([N+](=O)[O-])cc3)co2)CC1 | -15%
COc1ccc(OC)c(NC(=O)C2CCN(S(=O)(=O)c3ccc4c(c3)OCCO4)CC2)c1 | -20%
O=C(CCNS(=O)(=O)c1cccc2nsnc12)NCc1ccccc1 | -21%&-10%
CCCSCCCNC(=O)CN1C(=O)CCn2nc(-c3cn(C)c4ccccc34)cc21 | 23%
CCOc1cnc(-c2ccc(Cl)cc2)o1 | -8%
O=C(NCc1ccccc1Cl)C1CCCN1C(=O)NC1CCCCC1 (stereo not given) | -8%
Cc1ccc(NC(=O)CCNS(=O)(=O)c2ccc3c(c2)c(=O)n(C)c(=O)n3C)cc1C | -24%
CC(COc1cccc2ccccc12)CN1CCN(C)CC1 (stereo not given) | 13%
CC1CN(C(=O)CS(=O)(=O)Cc2ccccc2)CC(C)O1 (stereo not given) | -3%
CCOc1ccc(CC(=O)N/N=C/c2cccnc2)cc1OCC | 55%[activator]
Cc1cc(C)n(CC(=O)Nc2ccc([N+](=O)[O-])cc2)n1 | -17%
O=C(CCCCCN1C(=O)c2cccc([N+](=O)[O-])c2C1=O)Nc1ccccc1F | -4%
CCN(CC)CCn1c(=N)n(CC(O)COc2cccc(C)c2)c2ccccc21 (stereo not given) | 13%
COC(=O)c1ccc2c(c1)sc(=NC(=O)CCS(=O)(=O)c1ccccc1)n2C | -14%
CC1(C)O[C@@H]2[C@H](O1)[C@@H](CO)O[C@H]2n1cnc2c(=O)[nH]cnc21 | 1%
c1ccc2cc(-c3csnn3)ccc2c1 | -17%
COc1cc(NS(=O)(=O)c2cc3c(cc2C)NC(=O)CO3)cc(OC)c1 | -3%
Cc1ccc([N+](=O)[O-])cc1NC(=S)NC(=O)c1cccnc1 | 1%
Cc1cc(NC(=O)CSc2nnc(C3CC3)n2N)no1 | 7%
COc1ccccc1/C=N/Nc1nc(C)cc(C)n1 | -3%
Cc1sc2ncnc(NS(=O)(=O)c3ccc(Cl)cc3)c2c1C | -17%
C=C1c2ccccc2O[C@H](C(=O)OCC)C1OC (mixture of isomers) | ?
O=C(COc1ccc(F)cc1)Nc1cc(Cl)ccc1-n1cncn1 | 8%
CC1(C)CC(=O)C=C(c2ccc(F)cc2OCc2ccccc2)C1 | -18%
COCC(=O)N1CCC2(CCCN(Cc3nccs3)C2)CC1 | -28%
COc1ccc(Cl)cc1NC(=O)C(C)Sc1nncn1C (stereo not given) | -2%
Cc1cc(C(=O)Nc2cc(C(F)(F)F)ccc2N2CCOCC2)no1 | -10%
CC(=O)NC1(c2cccc(F)c2)CCN(C(=O)Nc2ccc(C#N)cc2)CC1 | -16%
O=C(/C=C/c1cccc(Oc2ccccc2)c1)N1CCOCC1 | 9%
Cc1nc(SCC(=O)c2c(N)n(C3CC3)c(=O)[nH]c2=O)[nH]c(=O)c1CCO | -26%
CC/C(=N/Nc1cccc(Cl)c1)c1cnnc(SC)n1 | -9%
O=C(O)C(Cc1ccccc1)N1CCS(=O)(=O)CC1 (stereo not given) | -5%
O=C(CNCCCO)Nc1cc(C(F)(F)F)cc(NC(=O)CNCCCO)c1Cl | -10%
CC(C)C(=O)NC(NC(=O)C(C)C)c1ccc([N+](=O)[O-])cc1 | 5%
Cc1ccccc1CNC(=O)Cc1ccc(NC(=O)N2CCCCc3ccccc32)cc1 | 3%
O=C(NC(=S)Nc1cccc([N+](=O)[O-])c1)c1ccccc1 | -22%
COC(=O)c1c(NC(=O)C(=O)NCC2CCCO2)sc2c1CC(C)(C)OC2 (stereo not given) | -7%
COc1ccc(C(=O)N(C(C)C)C(C)C)c(OC)c1 | 17%
COc1ccc(Cl)cc1NC(=O)CSc1nc2sccc2c(=O)[nH]1 | 19%
Cc1ccc(NC(=O)NC2CCCCC2)cc1Cl | -6%
Cc1cc2nn(-c3ccc(F)cc3)nc2cc1NC(=O)c1cc(Cl)ccc1Cl | -2%
CS(=O)(=O)N1CCc2cc(-c3csc(NCC4CCCO4)n3)ccc21 (stereo not given) | 2%
CCCCn1c(N)c(N(CCOC)C(=O)c2cccc(S(=O)(=O)N(CC)c3ccccc3)c2)c(=O)[nH]c1=O | -8%
COc1ccc2nc(N(Cc3cccnc3)C(C)=O)sc2c1 | 6%
Cc1sc2nc(CSCC(=O)NC3CCCCC3)[nH]c(=O)c2c1C | ?
COCCN1C(=O)c2oc3cc(C)c(C)cc3c(=O)c2C1c1ccc(O)cc1 (stereo not given) | 4%
CC1CCN(C(C(=O)NC2CCCCC2)c2cc3c(cc2[N+](=O)[O-])OCO3)CC1 (stereo not given) | -15%
COc1ccccc1CN1C(=O)C(=O)c2cccc(C)c21 | -1%
COc1ccc(NS(=O)(=O)c2ccc3c(c2)N(C(C)=O)CCO3)cc1 | -9%

(list continues)
mol | VDR inhibitor
Cc1cc(C(F)(F)F)nc(SCC(=O)Nc2cc(C)on2)n1 | -8%
CC(=O)c1ccc(N2CCN(C(=S)NCc3ccco3)CC2)cc1 | -8%
COc1ccc(-c2nn(-c3ccccc3)cc2C(=O)N(C)CC(=O)Nc2ccccc2Br)cc1 | -1%
COc1ccc2oc(C(=O)NN3C(C)CCCC3C)c(C)c2c1 (stereo not given) | 11%
S=c1[nH]nc(COc2ccccc2)n1-c1ccccc1 | -5%
